Source: PubChem (several laboratories)
PrP UTR inh = inhibition of PrP 5' UTR reporter expression; cell-based PrP 5' UTR mRNA reporter, plate reader; inhibition, % (no concentration beside the values); actives 0.35% (n = 340,000);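 active = every replicate at 50% or more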;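 note: 0 = median of the neutral control wells; tested in H4 reporter cells; numbers are from one replicate; inactives centre near -14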
Sa ugtP lethal = growth inhibition of ugtP-null S. aureus, primary screen, RN4220 ugtP deletion, OD600. 16 h; some inactives read as strong as hits. growth inhibition, % (no concentration beside the values). actives 0.54% (n = 330,000). AID 1259309, 2017;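 active = z-score under -3 and OD600 up to 0.15 on both plates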;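 note: plate controls were untreated wells for no effect and antibiotic for full effect; wells of about 80 µL received 100 nL stock; the first replicate is given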
Mtb hypoxia rep = PubChem AID 1159583. M. tuberculosis hypoxia-regulated fluorescent reporter, fluorescence. fluorescence inhibition, % (test concentration not listed). actives 0.1% (n = 300,000);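 active = 35 to 45% if threefold the growth effect, above 45% if 1.5-fold the growth effect; inactive = the rest, general growth blockers included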;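 note: wells of about 50 µL received 100 nL stock; 0% = vehicle wells and 100% = reference inhibitor wells; whole bacteria with a GFP reporter of the hypoxia response; strong numbers were not always called active; many hits fall short of the cut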
BJeLR lethal = MLPCN primary cell-based screen for lethality selective to Ras in HRASV12 cells. BJeLR (HRASV12) viability, CellTiter-Glo ATP luminescence, 48 h; reference of the scale not given here. actives 0.17% (n = 300,000). inhibition, % (test concentration not listed);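 active = replicate mean above 50%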;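 note: 50 nL library stock added to about 25 µL; numbers are from one replicate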
Sa RN4220 lethal = growth inhibition of S. aureus RN4220, primary screen, OD600; 16 h; inhibition, % (test concentration not listed); actives 0.33% (n = 330,000);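 active = z-score of -3 or lower and OD600 up to 0.18 on both plates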;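 note: plate controls were untreated cells for no effect and reference antibiotic for full effect; stock transfer was 100 nL into about 80 µL; one replicate is shown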
Autofluor counter = counter-screen for toxin protease inhibitors: compound fluorescence | actives 3.1% (n = 360,000) | compound autofluorescence counterscreen, microsphere flow cytometry; hits give high values | fluorescence intensity (test concentration not listed) | AID 624483;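 active = at least 3 SD above the mean of all compounds, about 16000 in these data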;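 note: 100 nL of 1 mM stock went into each well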
Mtb hypoxia rep growth = second read-out of Mtb hypoxia rep, no call of its own (marks repeat the call); growth inhibition, %; measured here: M. tuberculosis growth (absorbance);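 0% = vehicle and 100% = reference antibiotic; read after six days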
An asterisk follows results filed as active; / = not tested or not shown.

no. | Compound | PrP UTR inh | Sa ugtP lethal | Mtb hypoxia rep | Mtb hypoxia rep growth | BJeLR lethal | Sa RN4220 lethal | Autofluor counter
1 | C=CCn1c(=O)/c(=C\c2ccsc2)s/c1=C(/C#N)C(=O)NCCN1CCOCC1 | -7 | / | / | / | -9 | / | 3550
2 | COc1cc(NC(=O)C(F)(F)F)cc(OC)c1 | -21 | 4 | 9 | 3 | 0 | 0.6 | 16433*
3 | Cc1ccc([N+](=O)[O-])cc1-c1ccc(C=NNC(=O)CN2CCOCC2)o1 | / | -6 | -4 | 4 | / | -2.8 | /
4 | CN(c1ccc(C(=O)NCc2cccs2)cc1)S(=O)(=O)c1ccccc1 | -9 | 5 | 6 | 4 | -1 | 6.1 | 5021
5 | O=C(Nc1ccc(C(=O)O)cc1)/C(=C\c1ccco1)NC(=O)c1ccco1 | -17 | 11 | 2 | -3 | 3 | 3.1 | 4040
6 | CC(C)(C)OC(=O)N/N=C/c1c[nH]c2ccccc12 | -24 | / | / | / | -7 | / | 2552
7 | Cc1c(N=c2scc(-c3ccccc3)n2CCO)c(=O)n(-c2ccccc2)n1C | -21 | -8 | -7 | 0 | 0 | 1.1 | 3176
8 | CCOC(=O)C1=NN(c2ccc([N+](=O)[O-])cc2)CC1C(=O)OC (stereo not given) | -21 | 11 | 5 | 8 | -6 | 1.9 | 2572

Compound profiles (already shown). Values in the order: PrP UTR inh	Sa ugtP lethal	Mtb hypoxia rep	Mtb hypoxia rep growth	BJeLR lethal	Sa RN4220 lethal	Autofluor counter
`C=CCn1c(=O)/c(=C\c2ccsc2)s/c1=C(/C#N)C(=O)NCCN1CCOCC1` as listed: -7	/	/	/	-9	/	3550
`CC(C)(C)OC(=O)N/N=C/c1c[nH]c2ccccc12` as listed: -24	/	/	/	-7	/	2552

Next entries.
no. | Compound | PrP UTR inh | Sa ugtP lethal | Mtb hypoxia rep | Mtb hypoxia rep growth | BJeLR lethal | Sa RN4220 lethal | Autofluor counter
9 | Cc1ccc(C(=O)CSc2cnc3ccccc3n2)cc1C | 27 | 11 | 0 | -3 | -3 | 5.7 | 2654
10 | Cc1ccc(NC2CCCN(C(=O)Cc3nonc3C)C2)cc1C (stereo not given) | -16 | -6 | 0 | -1 | 7 | -3.4 | 4441
11 | COc1cc(NC(=O)CN(C)CCOc2ccccc2)c(C)cc1[N+](=O)[O-] | -29 | -9 | -1 | 7 | 8 | 4.4 | 3730
12 | COc1ccc(S(=O)(=O)NCCN2CCOCC2)cc1Br | -1 | -1 | 10 | 4 | -18 | 3.5 | 3763
13 | O=C(O)/C=C/C(=O)NNC(=O)c1ccccc1Br | -27 | 5 | 5 | 1 | -14 | 0.8 | 20690*
14 | CC1(C)CC(=O)C(C=NCCN2CCN(C3CC(=O)N(c4ccc(F)cc4)C3=O)CC2)=C(O)C1 (stereo not given) | -8 | 5 | -1 | 4 | 1 | 9.7 | 3882
15 | CC1Cc2cc(S(=O)(=O)NCCc3ccccc3)ccc2N1C(=O)C1CC1 (stereo not given) | -7 | 7 | 5 | 6 | 7 | 3.2 | 6152
16 | COc1cccc(NC(=O)CN2C(=O)C3(OCCCO3)c3ccccc32)c1 | -5 | -2 | 14 | 7 | 20 | 4.4 | 22688*
17 | CCCn1nc(C(=O)Nc2ccc3c(c2)OCCO3)c2ccccc2c1=O | -9 | 6 | 3 | 10 | / | 4.1 | 6690
18 | CC1=C(C)C(=O)OC(C(C)C2CCC3C4CC=C5CC(OC6OC(COC7OC(CO)C(O)C(O)C7O)C(O)C(O)C6O)CC(O)C5(C)C4CCC23C)C1 (stereo not given) | -6 | 0 | / | / | 3 | -2.1 | 5670
19 | CCN(C(=O)CSc1nnc(C)n1-c1cccc(C)c1)C1CCS(=O)(=O)C1 (stereo not given) | -11 | 1 | 20 | 9 | / | 1.9 | 3616
20 | COc1ccccc1NC(=O)CN(c1ccc(C23CC4CC(CC(C4)C2)C3)cc1)S(C)(=O)=O | / | -5 | 5 | 2 | -2 | 2.6 | 11518
21 | COCCNC(=O)c1ccc2c(c1)nc(C)n2-c1cc(OC)c(OC)c(OC)c1 | -4 | 5 | / | / | -4 | 0.9 | 3041
22 | O=C(O)c1cc(S(=O)(=O)N2CCCc3ccccc32)ccc1Cl | -12 | 16 | 1 | 4 | 5 | 3.2 | 4078
23 | CC(C(=O)NCC1CCCCC1)N(C)Cc1ccc(Cl)cc1 (stereo not given) | 0 | 6 | 5 | 1 | 2 | -4.3 | 4230
24 | CCN(CC)C1CCN(Cc2c(C(=O)N3CCCCCCC3)nc3ccc(Cl)cn23)C1 (stereo not given) | -21 | -2 | 2 | 7 | -11 | 0.1 | 7401

An excerpt of these results, with values under each structure.
Order of values: PrP UTR inh, Sa ugtP lethal, Mtb hypoxia rep, Mtb hypoxia rep growth, BJeLR lethal, Sa RN4220 lethal, Autofluor counter
#11 COc1cc(NC(=O)CN(C)CCOc2ccccc2)c(C)cc1[N+](=O)[O-]
→ -29, -9, -1, 7, 8, 4.4, 3730
#12 COc1ccc(S(=O)(=O)NCCN2CCOCC2)cc1Br
→ -1, -1, 10, 4, -18, 3.5, 3763
#13 O=C(O)/C=C/C(=O)NNC(=O)c1ccccc1Br
→ -27, 5, 5, 1, -14, 0.8, 20690*
#14 CC1(C)CC(=O)C(C=NCCN2CCN(C3CC(=O)N(c4ccc(F)cc4)C3=O)CC2)=C(O)C1 (stereo not given)
→ -8, 5, -1, 4, 1, 9.7, 3882
#15 CC1Cc2cc(S(=O)(=O)NCCc3ccccc3)ccc2N1C(=O)C1CC1 (stereo not given)
→ -7, 7, 5, 6, 7, 3.2, 6152
#16 COc1cccc(NC(=O)CN2C(=O)C3(OCCCO3)c3ccccc32)c1
→ -5, -2, 14, 7, 20, 4.4, 22688*
#17 CCCn1nc(C(=O)Nc2ccc3c(c2)OCCO3)c2ccccc2c1=O
→ -9, 6, 3, 10, /, 4.1, 6690
#18 CC1=C(C)C(=O)OC(C(C)C2CCC3C4CC=C5CC(OC6OC(COC7OC(CO)C(O)C(O)C7O)C(O)C(O)C6O)CC(O)C5(C)C4CCC23C)C1 (stereo not given)
→ -6, 0, /, /, 3, -2.1, 5670
#19 CCN(C(=O)CSc1nnc(C)n1-c1cccc(C)c1)C1CCS(=O)(=O)C1 (stereo not given)
→ -11, 1, 20, 9, /, 1.9, 3616
#20 COc1ccccc1NC(=O)CN(c1ccc(C23CC4CC(CC(C4)C2)C3)cc1)S(C)(=O)=O
→ /, -5, 5, 2, -2, 2.6, 11518
#21 COCCNC(=O)c1ccc2c(c1)nc(C)n2-c1cc(OC)c(OC)c(OC)c1
→ -4, 5, /, /, -4, 0.9, 3041
#22 O=C(O)c1cc(S(=O)(=O)N2CCCc3ccccc32)ccc1Cl
→ -12, 16, 1, 4, 5, 3.2, 4078
#23 CC(C(=O)NCC1CCCCC1)N(C)Cc1ccc(Cl)cc1 (stereo not given)
→ 0, 6, 5, 1, 2, -4.3, 4230
#24 CCN(CC)C1CCN(Cc2c(C(=O)N3CCCCCCC3)nc3ccc(Cl)cn23)C1 (stereo not given)
→ -21, -2, 2, 7, -11, 0.1, 7401

New compounds follow:
no. | Compound | PrP UTR inh | Sa ugtP lethal | Mtb hypoxia rep | Mtb hypoxia rep growth | BJeLR lethal | Sa RN4220 lethal | Autofluor counter
25 | CCN(C(=O)COc1ncnc2ccccc12)C1CCCCC1 | -3 | -4 | 2 | 3 | / | 1.2 | 2980
26 | CCCC(=O)Nc1ccccc1NC(=O)c1ccc(OC)cc1 | -5 | 0 | 9 | 1 | 0 | 1.3 | 2300
27 | O=C(c1ccc(F)cc1)N1CCN(C2CCC(c3ccccc3)CC2)CC1 (stereo not given) | -22 | 4 | -2 | -3 | 0 | 0.6 | 2604
28 | COC(=O)CCCC(=O)NCC1(N(C)Cc2ccccc2)Cc2ccccc2C1 | -21 | 13 | 5 | 9 | 15 | -1.0 | 3690
29 | CCS(=O)(=O)NCc1csc(C)n1 | -14 | -5 | 1 | 4 | 5 | -21 | 3178
30 | CCC(C)(C)C1CCC2(CC1)NC(=O)N(CC(=O)NCCOc1ccccc1)C2=O (stereo not given) | -16 | -3 | 8 | 4 | / | 1.6 | 3717
31 | O=C(N/N=C/c1ccncc1)c1ccc(COc2cccc3cccnc23)cc1 | -4 | / | / | / | -1 | / | 3280
32 | O=c1c2ccccc2nc(CNCC2CCCO2)n1-c1ccc(F)cc1 (stereo not given) | -9 | -9 | -2 | -13 | 3 | -2.3 | 4559
33 | CCOc1ccc(-c2csc(NC(=O)c3cccc(N4C(=O)CCC4=O)c3)n2)cc1 | -4 | 6 | 12 | 0 | -6 | 2.0 | 3894
34 | CCN(Cc1ccc(OC)c(F)c1)C(=O)c1cc2ccccc2o1 | 4 | 2 | / | / | -6 | 15 | 3039
35 | C[N+]1(CCN2C(=O)C3CC=C(Cl)CC3C2=O)CCOCC1 (stereo not given) | -5 | 4 | / | / | 3 | 2.4 | 4059
36 | O=C(CSc1ccc(-c2ccccn2)nn1)c1ccc([N+](=O)[O-])cc1 | -20 | -4 | 3 | 2 | 14 | 2.1 | 3340
37 | COC(=O)CSc1nnnn1-c1cccc2ccccc12 | -15 | 1 | 4 | 10 | -5 | 5.2 | 5630
38 | N#Cc1c(NC(=O)CCN2C(=O)c3ccccc3C2=O)oc(-c2ccccc2)c1-c1ccccc1 | -3 | -14 | -3 | 2 | 2 | -9.6 | 2530
39 | Cc1c(C2C(C#N)=C(N)N(c3cccc([N+](=O)[O-])c3)C3=C2C(=O)CCC3)cnn1C (stereo not given) | / | 2 | 13 | 4 | 9 | 3.0 | /
40 | COc1ccc(C(C)=NN=C(C)c2ccc(OC)cc2OC)c(OC)c1 | / | 9 | 5 | 5 | / | 4.3 | /
41 | Clc1ccccc1N/N=C/c1ccc2c(c1)OCO2 | -67 | / | / | / | 9 | / | 9022
42 | CCOC(=O)c1sc2nc(C)nc(NCCc3ccc(S(N)(=O)=O)cc3)c2c1C | 4 | 0 | -8 | -9 | -2 | 2.6 | 5418
43 | O=C(Nc1ccc(-c2nnc(-c3ccccc3)o2)cc1)C1CCCO1 (stereo not given) | -124 | -2 | 6 | 3 | 2 | 5.3 | 23464*
44 | Cc1cc(C)n(-c2cccc(C(=O)O)c2)n1 | -30 | 4 | -12 | -4 | -3 | 12 | 4287
45 | Cc1ccc(S(=O)(=O)N2[C@@H](c3ccc(Br)cc3)C(C(=O)O)=CC[C@H]2c2cccc(Cl)c2)cc1 | 6 | 26 | -2 | -1 | / | 16 | 3125
46 | COc1cc(OC)c(-n2cc(-c3ccc(Cl)cc3)[nH]c2=O)cc1Cl | 4 | / | / | / | 9 | / | 2488
47 | CN1CCN(S(=O)(=O)CC2(C)C3CCC2(C)C(=O)C3Br)CC1 (stereo not given) | 0 | -1 | 10 | 9 | -4 | 1.8 | 5473
48 | COc1ccc2oc(C(=O)Nc3ccc(N4CCOCC4)cc3)c(C)c2c1 | -24 | -2 | 4 | 3 | -9 | 7.5 | 5906
49 | COc1nc(C)nc(NC(=O)NS(=O)(=O)c2ccccc2Cl)n1 | -12 | 8 | 4 | 10 | -8 | 3.3 | 6579
50 | Cc1cc(=O)n(CCC(=O)O)c2ccccc12 | -45 | -5 | 4 | 11 | 3 | -16 | 3265
51 | Cc1ccccc1OCC(O)Cn1c(Br)nc2c1c(=O)n(C)c(=O)n2C (stereo not given) | -19 | 3 | 1 | 6 | 10 | 2.0 | 2578
52 | CCCCNC(=S)NN=Cc1ccc(OCC(=O)Nc2c(C)cc(C)cc2C)c(OC)c1 | / | 15 | 8 | -4 | / | 9.3 | /
53 | O=C(OCn1nnc2ccccc2c1=O)c1ccc(O)cc1 | -5 | 4 | 17 | 7 | 13 | 6.9 | 3162
54 | O=C1Nc2ccccc2OC1CC(=O)N1CCN(c2cccc(C(F)(F)F)c2)CC1 (stereo not given) | -7 | -9 | -2 | 4 | 4 | 1.5 | 21735*
55 | Cn1cc(C=NNc2ccccc2)c2ccccc21 | / | -2 | 6 | 16 | / | 1.1 | /
56 | COc1cccc2c1OC1(C)CC2/C(=C(\C)O)C(=O)N1 (stereo not given) | 0 | -2 | -2 | 4 | / | -1.1 | 10163
57 | O=C(/C=C/c1ccccc1[N+](=O)[O-])Nc1cccnc1 | -54 | 3 | 17 | 8 | 0 | 6.8 | 2490
58 | NC(=O)C1CC(=O)N(CCc2ccc(F)cc2)C1 (stereo not given) | -18 | 1 | 2 | 2 | 5 | 2.4 | 3506
59 | CC(C)(C)n1ncc2c(=O)n(CC(=O)c3ccccc3)cnc21 | -65 | 6 | 8 | 10 | -1 | 5.1 | 2817
